eIF4H FP inh – inhibitors of RNA binding by human eIF4H. eIF4H fluorescence polarization binding assay. actives 0.94% (n = 290,000). inhibition, % at 35 µM. Q15056;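 active = 50% or more with normal probe brightness, or confirmed in later tests; inconclusive = above 50% with abnormal brightness, or retests that disagree; inactive = below 50% or failed in later tests; about a fifth of its hits are not listed in these tables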;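 also: calls also rest on retests at 20 µM and on dose response follow-up; 0% = protein and probe with vehicle and 100% = probe without protein; strong numbers were not always called active; many hits fall short of the cut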
MT1-MMP act inh – inhibitors of human MT1-MMP activation; GFP/RFP ratio change, % at 20 µM; HT1080 RFP-PRO-GFP cells, GFP/RFP ratio fluorescence, overnight; percent of plate control window, DMSO zero; actives 0.061% (n = 360,000); AID 651647;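 active = GFP/RFP ratio change of at least 30% with cell ATP level not reduced by more than half and red fluorescence within 50% of control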; also: strong numbers were not always called active
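Assay system: HT1080 RFP-PRO-GFP cells. Benchmarks: DMSO vehicle wells and RFP-L50D-GFP reporter cell wells. Times: overnight cell settling, then overnight compound exposure, 37 °C, 5% CO2. Compound: 20 µM single dose, 1% DMSO. Read-out basis: GFP/RFP fluorescence ratio.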
HIV Env fusion – blocks HIV Env-driven cell-cell fusion; actives 1.1% (n = 360,000); inhibition, % at 12.3 µM; HeLa-JRFL Env/CEM21 cell fusion, luciferase;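 active = mean replicate inhibition score of at least 50 and every replicate individually at or above 50; inconclusive = only one of the two criteria met; inactive = mean below 50 and not all replicates reaching 50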;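 also: 0% = plate neutral controls and 100% = maraviroc near 300 nM; one replicate is shown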
PABP polyA inh – blocks human PABP binding to poly(A) RNA | fluorescence polarization | AID 2014 | inhibition, % at 35 µM | actives 1% (n = 290,000);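 active = 50% or more with normal probe brightness, or confirmed in later tests; inconclusive = above 50% with abnormal brightness, or retests that disagree; inactive = below 50% or failed in later tests; about a fifth of its hits are not listed in these tables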;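 also: calls also rest on retests at 20 µM and on dose response follow-up; controls were probe without protein and protein plus probe with vehicle; some compounds called inactive have numbers as strong as hits; many hits fall short of the cut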
Target sequence (P11940 whole entry, looked up): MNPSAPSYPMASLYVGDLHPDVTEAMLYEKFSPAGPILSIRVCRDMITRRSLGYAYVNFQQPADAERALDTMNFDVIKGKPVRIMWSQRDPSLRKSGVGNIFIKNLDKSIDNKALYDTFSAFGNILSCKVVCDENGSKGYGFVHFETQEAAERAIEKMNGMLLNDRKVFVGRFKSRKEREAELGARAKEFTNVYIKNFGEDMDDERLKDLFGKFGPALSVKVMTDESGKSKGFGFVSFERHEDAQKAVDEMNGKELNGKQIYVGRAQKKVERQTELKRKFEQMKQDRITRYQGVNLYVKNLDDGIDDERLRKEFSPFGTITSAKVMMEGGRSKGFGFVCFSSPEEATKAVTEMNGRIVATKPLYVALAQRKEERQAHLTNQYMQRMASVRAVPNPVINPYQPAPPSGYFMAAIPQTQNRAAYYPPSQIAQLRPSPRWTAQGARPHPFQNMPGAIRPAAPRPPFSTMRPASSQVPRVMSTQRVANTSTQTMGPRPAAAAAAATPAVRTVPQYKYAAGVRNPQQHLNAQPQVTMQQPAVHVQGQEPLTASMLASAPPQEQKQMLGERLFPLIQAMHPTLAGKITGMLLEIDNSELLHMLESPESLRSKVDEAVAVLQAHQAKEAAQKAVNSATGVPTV
CSC inhib – blocks cancer stem cells; cancer stem cell-like cells viability, luminescence; inhibition, % at 7.5 µM; actives 1.1% (n = 300,000); AID 2717;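 active = mean at 75% or more and at least half the replicates too; inconclusive = mean and replicates disagree; tested in HMLE shEcad cells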;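 also: 0% = median of negative and 100% = median of positive control wells; the first replicate is given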
Yeast UUG start – alters start codon recognition fidelity in yeast; S. cerevisiae UUG-firefly luciferase reporter, luminescence/redox ratio; activity score, % at 18.7 µM; actives 0.13% (n = 350,000); AID 602363;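 active = replicate mean at a twofold rise or more, about +100% in these data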;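 also: firefly luciferase made from a UUG start codon reports start codon fidelity; reporter light over untreated wells divided by growth signal over untreated wells; some hits fall short of that in this replicate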
Rce1 inhib – inhibitors of yeast Ras-converting enzyme. Q03530. yeast membranes, quenched prenylated peptide cleavage fluorescence. calls only. actives 0.27% (n = 290,000). AID 2563;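 active = fall in fluorescence gain of 50% or more versus controls, with final raw signal at or below 3038400; inconclusive = same 50% fall but final raw signal above 3038400; inactive = fall in fluorescence gain under 50%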;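 also: plate controls were neutral control wells for no effect and wells lacking membranes for full effect; tested at 10 µM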
eIF4H FP inh retest – second read-out of eIF4H FP inh, no call of its own (marks repeat the call); inhibition, %; compound at 20 µM; confirmation average;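 mean of two retest wells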
PABP polyA inh retest – second read-out of PABP polyA inh, no call of its own (marks repeat the call); inhibition, %; compound at 20 µM; confirmation repeats;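 mean of two retest wells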
MT1-MMP act inh RFP – also measured in MT1-MMP act inh; calls as there; RFP signal change, %; measured here: RFP expression control read;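 0 = vehicle wells; hits needed this value within 50% of zero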
Starred values were filed as active, the others as inactive; i = inactive; ? = inconclusive; / = not tested or not shown; + = active, no number; & = joins results of further samples; [ ] = dose if it differs, or a comment.

SMILES | eIF4H FP inh | MT1-MMP act inh | MT1-MMP act inh RFP | HIV Env fusion | PABP polyA inh | CSC inhib | Yeast UUG start | Rce1 inhib | others
COc1cccc(NC(=O)CSc2nnc3cc(C)nc(N)n23)c1 | -5 | 1 | 1 | 6 | -8 | -5 | / | i
COC(=O)c1ccc(C(=O)OC)nc1 | -10 | -4 | 0 | -24 | -2 | 2 | -11 | i
Cc1ccc(NC(=O)CCc2ccc(S(=O)(=O)NC3CCCCC3)cc2)cc1 | -1 | 0 | -12 | / | -8 | 14 | -13 | +
O=C(NN=C1CCCC1)c1n[nH]c2c1CCCC2 | -6 | 5 | 3 | 0 | -3 | -11 | / | i
COc1ccc(N(CC(=O)Nc2cccc(N(C)S(C)(=O)=O)c2)S(C)(=O)=O)cc1OC | -8 | 0 | 5 | / | 2 | -3 | -8 | i
Cc1ccc(NC(=O)C(c2ccccc2)N2CCN(CC(=O)N3CCOCC3)CC2)cc1Cl (stereo unspecified) | / | 0 | 1 | 1 | / | -5 | -1 | /
CC1(C)O[C@@H]2[C@H](O1)[C@@H](CO)O[C@H]2n1cnc2c(N)ncnc21 | / | -2 | 2 | -9[16.7 µM] | / | -15 | -8 | /
C[C@H](CO)N1C[C@H](C)[C@@H](CN(C)C(=O)Nc2ccc3c(c2)OCO3)Oc2c(NC(=O)c3ccncc3)cccc2C1=O | / | -2 | 4 | 24 | / | 1 | -10&-10 | /
CSc1ccc(Cl)c(C(=O)Nc2cc(S(=O)(=O)N3CCOCC3)ccc2N2CCOCC2)c1 | / | 3 | 3 | -6 | / | -9 | -15 | /
O=C(c1cc([N+](=O)[O-])ccc1Cl)N1CCN(c2ccccn2)CC1 | 7 | 5 | 8 | -96 | 2 | -16 | -3 | i
Cc1ccc(-c2nnc(-c3cccs3)o2)cc1 | -13 | -4 | -3 | -71 | -4 | -23 | / | i
O=C(CS(=O)(=O)c1cn(Cc2ccc(Cl)cc2)c2ccccc12)N1CCCCC1 | -6 | 2 | -3 | / | 0 | 6 | -7 | i
Cc1[nH]n(-c2ccccc2)c(=O)c1N=Nc1ccccc1C(=O)N1CCOCC1 | -5 | 10 | 5 | 6 | -6 | -3 | / | i
COCC(=O)Nc1ccc(N2CCOCC2)c(S(=O)(=O)Nc2ccccc2OC)c1 | / | -1 | -4 | -8 | / | -26 | 8 | /
CC(=O)Nc1ccc(N(C(=O)CNC(=O)c2cccs2)C(C(=O)NC(C)(C)C)c2ccccc2)cc1 (stereo unspecified) | 2 | 7 | 8 | -1 | -7 | -14 | 2 | i
COc1ccc(N2C(=O)C3CCCN3C2c2cccc(OC)c2OC)cc1 (stereo unspecified) | -8 | 2 | 2 | -2 | 6 | -8 | -3 | i
O=S(=O)(c1cc(Br)c(Cl)s1)N1CCCC1 | -4 | -3 | -2 | 11 | -1 | -2 | -9 | i
Cc1ccc(-n2ncc3c(=O)n(Cc4cccnc4)cnc32)cc1 | 4 | -2 | -12 | 30 | 10 | / | -5 | i
COc1cccc(OCc2cc(C(=O)NCCN3CCCCC3CO)no2)c1 (stereo unspecified) | -11 | -2 | 3 | 5 | 1 | -10 | -3 | i
Cc1ccccc1N=Nc1c(N)n[nH]c1N | 6 | 3 | 0 | -23 | -3 | -5 | -5 | i
COc1ccc(S(=O)(=O)N2CCC(C(=O)N[C@@H](C)C(=O)NC3CC3)CC2)cc1 | -4 | -1 | 7 | -4 | -6 | -18 | -5 | i
Cn1ncc2c(N)nc(NCCO)nc21 | / | -1 | 1 | 13 | / | / | -19 | /
CN=C(Nc1cccc(OC)c1)SC1CC(=O)N(c2ccc(C(=O)O)cc2)C1=O (stereo unspecified) | 1 | 10 | 5 | -10 | 10 | -4 | -11 | i
O=C(NCCc1csc(-c2cccnc2)n1)c1cccc(Cl)c1 | -3 | 1 | -7 | 10 | -3 | 9 | / | i
CCn1cc(CN2CCN(CCc3ccccc3)C(CCO)C2)c(C)n1 (stereo unspecified) | -13 | 3 | 7 | -5 | 7 | 4 | / | i
SMILES | eIF4H FP inh | MT1-MMP act inh | MT1-MMP act inh RFP | HIV Env fusion | PABP polyA inh | CSC inhib | Yeast UUG start | Rce1 inhib | others
COC(OC)C1(CCc2ccccc2)NC(=O)NC1=O (stereo unspecified) | / | -1 | 2 | -5 | / | / | -16 | /
O=C(c1ccccc1C(=O)N(c1ccccc1)c1ccccc1)N1CCCCC1 | 6 | -1 | 2 | 3 | 2 | 10 | / | i
Cc1ccc(S(=O)(=O)Nc2ccccc2-c2ccccc2NS(=O)(=O)c2ccc(C)cc2)cc1 | -12 | 1 | -7 | / | 6 | ? | -19 | i
FC(F)Oc1ccc(NC(=S)NC23CC4CC(CC(C4)C2)C3)cc1 | -8 | 1 | 3 | -2 | -1 | / | -28 | i
Cc1cccc(Cn2c(=O)n(-c3ccc(CC(=O)NCc4ccco4)cc3)c(=O)c3sccc32)c1 | 1 | 8 | -7 | 8 | 0 | 8 | -32 | i
Cc1cc(NS(=O)(=O)c2ccc(NC(=O)Nc3cccc(C(F)(F)F)c3)cc2)no1 | -6 | 2 | -4 | -5 | 6 | -4 | -5 | i
CN(C)c1nc(N2CCN(c3ccccc3)CC2)c(C#N)c(=O)o1 | 8 | 2 | -1 | -35 | -6 | 0 | / | /
CN1C(=O)CS(=O)c2ccc(C(=O)NC3CC3)cc21 (stereo unspecified) | -1 | 3 | 5 | 0 | -10 | -15 | 1 | i
CN(C(=O)COC(=O)c1cc(-c2ccccc2Cl)nc2ccccc12)C1CCS(=O)(=O)C1 (stereo unspecified) | -1 | -3 | -5 | 7 | -4 | 3 | 8 | i
CCCNC(=O)C1(C)CCCN(Cc2c3ccccc3nn2C)C1 (stereo unspecified) | / | -1 | 0 | 3 | / | / | -3 | /
O=C(CN1CCCC1)N1c2ccccc2Sc2ccc(Cl)cc21 | -14 | -8 | 1 | -58 | -4 | -26 | -6 | i
Cn1nccc1NC(=O)CC1(CC(=O)O)CCCCC1 | -5 | -2 | 1 | -4 | 1 | -13 | -13 | i
CC(=O)c1ccc(N2CCN(S(=O)(=O)c3cccc4nsnc34)CC2)cc1 | -5 | 1 | 1 | 3 | 21 | -12 | / | i
NC(=O)Cn1c(O)c(N=NC(=O)CNC(=O)/C=C/c2ccccc2)c2ccccc21 | -4 | 3 | 1 | -9 | -1 | -11 | -6 | i
O=C(COC(=O)CCC(=O)c1ccc(F)cc1)Nc1ccc(N2CCOCC2)cc1 | -3 | 2 | 6 | / | -4 | 2 | 1 | i
CC1(C)CC(NCCN2CCN(C3=CC(=C(C#N)C#N)CC(C)(C)C3)CC2)=CC(=C(C#N)C#N)C1 | 1 | -4 | -8 | 46 | 8 | 9 | / | i
O=S(=O)(NCC1CCC(NS(=O)(=O)c2c(F)cccc2F)CC1)c1ccc2c(c1)OCCO2 (stereo unspecified) | / | 10 | 2 | -22 | / | / | -3 | /
COc1cccc(-n2c(COc3ccc(C)cc3)nnc2SCC(N)=O)c1 | -12 | 5 | 2 | -25 | -6 | -2 | -12 | i
CCC(CC)c1nnc(NC(=O)c2c(-c3ccccc3)noc2C)s1 | 0 | 0 | 4 | 2 | -1 | 5 | -10 | i
COc1ccc(CN(C(=O)c2ccco2)c2ccc(C)c(C)c2)cc1 | -8 | -8 | -10 | -5 | -2 | 9 | -30 | i
O=C(Nc1ccc(Br)cc1)c1ccc(N2C(=O)C3CCCCC3C2=O)cc1 (stereo unspecified) | 4 | 8 | -3 | 32 | -30 | -3 | -14 | i
O=C(NCC1OCCCN1S(=O)(=O)c1cc(F)ccc1F)C(=O)NC1CCCCCC1 (stereo unspecified) | -1 | -2 | -1 | 5 | 34 | 5 | / | i
COc1ccc2oc(C(=O)NC(C)c3ccccn3)c(C)c2c1 (stereo unspecified) | / | 0 | 2 | -40 | / | / | -3 | /
COC(=O)CNC(c1ccccc1)c1cc(Br)ccc1NC(=O)CNC(=O)OCc1ccccc1 (stereo unspecified) | -11 | -8 | -10 | / | 41 | 54 | / | i
CCN(c1ccccc1)S(=O)(=O)c1ccc(N2CCN(c3ccc(OC)cc3)CC2)nc1 | / | 8 | -1 | -439 | / | -1 | -39 | /
SMILES | eIF4H FP inh | MT1-MMP act inh | MT1-MMP act inh RFP | HIV Env fusion | PABP polyA inh | CSC inhib | Yeast UUG start | Rce1 inhib | others
Cc1ccc(NC(=O)N/C=C/c2ccco2)c(C)c1 | -1 | -4 | 2 | 5 | -4 | -6 | 1 | i
CCn1c(CNC(=O)c2ccco2)nnc1SCCOc1ccccc1 | -8 | -1 | 3 | 6 | 0 | -10 | -20 | /
CCN(CC)P(=O)(Nc1ccc([N+](=O)[O-])cc1)c1c(C)nn(CCC#N)c1NC(=O)c1ccc(Cl)cc1Cl (stereo unspecified) | -7 | 3 | -5 | 19 | 17 | 10 | / | i
COc1ccccc1-c1nnc(SCC(=O)Nc2ccc(S(N)(=O)=O)cc2)n1C | 3 | -1 | 3 | -11 | 0 | 1 | -11 | i
COc1ccc(C2NC(=O)NC(O)(C(F)(F)F)C2C(=O)c2ccc(C)cc2)cc1 (stereo unspecified) | -9 | 2 | 0 | / | 3 | -8 | -12 | i
CCCN(CC(=O)Nc1ccccc1C)C(=O)c1cnc(C)cn1 | / | 21 | -1 | -2 | / | / | -13 | /
NC(=S)N/N=C/c1c(O)c(Br)cc2oc3c(c12)CCCC3 | 105 | -12 | -14 | 9 | 53 | 39 | -27 | i | eIF4H FP inh retest=-2;PABP polyA inh retest=-1
O=C(Nc1nc(-c2ccccc2)cs1)Nc1ccc(F)cc1F | -12 | -6 | -19 | -9 | -4 | 15 | / | i
CC(C)C[C@@H](CN1CCC[C@@H]1CN1C(=O)C(=O)NC[C@@H]1Cc1ccccc1)N1C[C@H](Cc2ccc(O)cc2)N(CCc2ccccc2)C(=O)C1=O | / | -5 | -1 | 8 | / | / | 1 | /
O=C(c1cccc([N+](=O)[O-])c1)N1CCN(S(=O)(=O)N2CCCCC2)CC1 | -12 | 1 | 2 | 8 | -4 | -11 | -14 | i
CCOC(=O)N1CCC(N2CC34C=CC(O3)C(C(=O)Nc3ccc(C)cc3)C4C2=O)CC1 (stereo unspecified) | -3 | -1 | 5 | 3 | -12 | -16 | -5 | i
CCc1ccc(OCc2nnc(-c3ccccc3Br)o2)cc1 | / | -3 | 1 | / | / | -5 | -10 | /
COc1ccc(OC)c(NC(=O)CC2Oc3ccccc3NC2=O)c1 (stereo unspecified) | -8 | -2 | -5 | -34 | -2 | -11 | -4 | i
Cn1cc(-c2cc(C(=O)O)on2)cn1 | -11 | 3 | 7 | 9 | 1 | / | -6 | i
O=C(Nc1nnc(SCC(=O)N2CCCCC2)s1)c1ccc(F)cc1F | -4 | -2 | -2 | -10 | 4 | / | -6 | i
Cc1onc(-c2ccccc2)c1-c1csc(N/N=C/c2ccccc2)n1 | -4 | 1 | 2 | 17 | -12 | 28 | / | i

High-throughput results: PubChem BioAssay, several laboratories
